H5N1 CPE = MDCK cell protection from H5N1 avian flu; cytopathic effect, luminescence, 72 h; hits give high values; no value below 0 was filed and about half of the inactive calls have no number; reference of the scale not given here; 96,000 compounds, 0.07% hits; inhibition, % at 50 µM; in the data active = inhibition above about 25%
The depositor's hits bear a star; i = inactive. An excerpt; count on the stated rates, not on these rows.

Preview:
compound	H5N1 CPE
Cc1csc(NC(=O)CSc2nnc(-c3ccc(Cl)cc3)n2N)n1	i
CCCCCOc1ccc(C2NC(=O)NC2=O)cc1 (stereo not drawn)	i
CC(C(=O)Nc1cccc([N+](=O)[O-])c1)n1nnc2ccccc21 (stereo not drawn)	2.5
CCCn1c(O)c2ccc(C(=O)N=NC(=O)c3cccnc3)cc2c1O	i

This part in full, repeating the preview:
compound	H5N1 CPE
Cc1csc(NC(=O)CSc2nnc(-c3ccc(Cl)cc3)n2N)n1	i
CCCCCOc1ccc(C2NC(=O)NC2=O)cc1 (stereo not drawn)	i
CC(C(=O)Nc1cccc([N+](=O)[O-])c1)n1nnc2ccccc21 (stereo not drawn)	2.5
CCCn1c(O)c2ccc(C(=O)N=NC(=O)c3cccnc3)cc2c1O	i
CC(C)(C)c1cccc(OCCCSc2ncccn2)c1	1.5
Cc1ccc2nc(C(=O)O)c(C(=O)O)nc2c1	0.4
COc1cc2nc(-c3ccccc3)nc(N3CCCC3)c2cc1OC	0.4
Cc1cccc(C(=O)NNC(=O)C(=O)NC(C)(C)C)c1	i
CC(C)(C)C1(c2ccccc2)NC(=O)N(CC(=O)N2CCOCC2)C1=O (stereo not drawn)	i
Cc1ccccc1Cn1c(=N)n(CC(O)c2ccco2)c2ccccc21 (stereo not drawn)	i
C#CCN(N(C)c1ncc(C(F)(F)F)cc1Cl)S(=O)(=O)c1ccc2ccccc2c1	i
COCCNS(=O)(=O)c1ccccc1	0.4
Cc1cc(N2CCN(C(=O)c3ccco3)CC2)n2nc(C)c(-c3ccccc3)c2n1	1.8
CN(Cc1ccccc1)S(=O)(=O)c1ccc(NS(=O)(=O)Cc2ccccc2)cc1	3.0
C=CCOc1ccc(C2C(C(=O)c3ccco3)=C(O)C(=O)N2Cc2cccnc2)cc1 (stereo not drawn)	1.3
Nc1nc(Nc2cccc(F)c2)nc2ccccc12	i
Nc1c(C(=O)c2ccccc2)sc2snc(SCC(=O)c3ccccc3)c12	1.2
O=C(O)c1ccc2c(c1)C(=O)N(C(Cc1ccc(O)cc1)C(=O)O)C2=O (stereo not drawn)	i
c1ccc(-n2c(SCC3CCCCO3)nnc2-c2cnccn2)cc1 (stereo not drawn)	1.7
CCOc1ccccc1NC(=O)CN(C)S(=O)(=O)c1ccc(OC)c(C)c1	i
Cc1cc(C)nc(/N=C(\N)C2=C(O)CC(C)(C)CC2=O)n1	0.1
CC1(C)CC(=O)C=C(NCc2ccc(Cl)c(Cl)c2)C1	i
Cn1c(=O)c2c(nc(CN3CCN(CCO)CC3)n2Cc2cccc3ccccc23)n(C)c1=O	4.6
CC(C)C1Oc2ccccc2N(CC(=O)N(Cc2ccccn2)CC2CCCO2)C1=O (stereo not drawn)	i
Fc1ccccc1C(c1nnnn1Cc1ccc2c(c1)OCO2)N1CCN(Cc2ccccc2)CC1 (stereo not drawn)	0.1
CCOC(=O)N1CCN(S(=O)(=O)c2cc(OCC)ccc2OCC)CC1	0.7
CC(C)OCCCNS(=O)(=O)c1ccc2ccccc2c1	i
Cc1nc(N2CCN(C)CC2)c2sc(=S)n(-c3ccccc3)c2n1	i
Cc1cccc(-n2c(N)cc(=O)nc2SC(C)C(=O)NC2CCCCC2)c1 (stereo not drawn)	i
C=CCC(C#Cc1ccccc1)[N+](C)(C)CC=C (stereo not drawn)	i
Cc1ccc(C)c(C(=O)CSc2n[nH]c(C)n2)c1	i
CCN1CCN(Cc2ccc(NC(=O)Nc3cccs3)cc2)CC1	i
O=C(c1ccc(F)cc1)C1CCN(C(=O)Nc2ccc(F)cc2)CC1	1.6
Nc1c(Cl)ncnc1N1CCOCC1	i
Cc1ccc2c(C)nc(Nc3nc(CSc4nnnn4-c4ccccc4)cc(=O)[nH]3)nc2c1	2.4
Cc1nn(C)cc1CNC(=O)c1cnn2c1NC(c1ccc(Br)cc1)CC2C(F)(F)F (stereo not drawn)	i
N#CC(C(=O)Nc1ccc(Cl)c(Cl)c1)=C1Nc2ccccc2N1	i
CCCCNC(=O)CC1N=C2c3ccccc3N=C(SCC(=O)Nc3cccc(C)c3)N2C1=O (stereo not drawn)	i
CCN(CC)S(=O)(=O)c1ccc2oc(C(=O)NCCCN3CCOCC3)c(C)c2c1	i
Cc1ccc(CN2CCN(CC(=O)NC(C)c3ccc4c(c3)OCCO4)C2=O)cc1 (stereo not drawn)	0.1
Cc1cc(C)nc(NC2=NCCS2)n1	i
Cc1cc(/C=N/n2cnnc2)c(C)n1-c1ccc(OCc2ccccc2F)cc1	i
O=C(OCc1ccc(Cl)cc1Cl)c1ccncc1	i
COc1ccc(NC(=O)CN(c2cc(C)cc(C)c2)S(=O)(=O)c2c(C)n[nH]c2C)cc1	0.3
c1ccc2c(N3CCOCC3)nc(-c3ccncc3)nc2c1	1.8
Cc1sc2ncn(-n3c(C)ccc3C)c(=O)c2c1C	i
COC(=O)CN(c1ccc2c(c1)OCO2)S(C)(=O)=O	i
CCCCNC(=O)c1cn(-c2ccc(OCC)cc2)c(=O)c2cc(OC)c(OC)cc12	i
O=C1NC(=O)C2(CCc3ccccc32)N1 (stereo not drawn)	0.8
Cc1ccc(S(=O)(=O)/C(C#N)=C/c2c[nH]c3ccccc23)cc1	i

Some of these compounds in order of molar mass, low to high:
compound	H5N1 CPE
Nc1c(Cl)ncnc1N1CCOCC1	i
CCOC(=O)N1CCN(S(=O)(=O)c2cc(OCC)ccc2OCC)CC1	0.7
Cc1ccc(CN2CCN(CC(=O)NC(C)c3ccc4c(c3)OCCO4)C2=O)cc1 (stereo not drawn)	0.1
CCCCNC(=O)c1cn(-c2ccc(OCC)cc2)c(=O)c2cc(OC)c(OC)cc12	i
COc1ccc(NC(=O)CN(c2cc(C)cc(C)c2)S(=O)(=O)c2c(C)n[nH]c2C)cc1	0.3

Other structures follow.
compound	H5N1 CPE
CCc1nnc(SCCSc2nnc(CC)n2N)n1N	0.5
O=C(CSc1nnc(-c2cccs2)n1-c1ccccc1)N1CCOCC1	0.3
CS(=O)(=O)N(CCc1ccccc1)CC(=O)NCc1ccc2c(c1)OCO2	i
CCOC(=O)c1cc2c(C(F)(F)F)cc(-c3ccccc3)nc2o1	i
CC(C)Cn1c(-c2ccc(C#N)cc2)nc2c1c(=O)[nH]c(=O)n2CC(C)C	i
OC1(c2cccc(F)c2)CCN(Cc2ccncc2)CC1	1.8
COc1ccc(NC(=O)c2cc(F)cc(F)c2)cc1Cl	1.2
O=C(CCC1CCCC1)NCCCN1CCOCC1	1.0
CN(C)c1ccc(/C=C2\SC(=S)N(Nc3ncc(C(F)(F)F)cc3Cl)C2=O)cc1	1.0
CN(C(=O)COC(=O)C1CCN(S(=O)(=O)c2cccs2)CC1)C1CCS(=O)(=O)C1 (stereo not drawn)	i
Cc1noc(C)c1Cc1c(Cl)cccc1Cl	0.7
O=C(O)CN1C(=O)NC2NC(=O)NC21 (stereo not drawn)	0.1
O=C(NCc1ccco1)c1ccc2c(c1)C(=O)N(Cc1ccccc1)C2=O	i
CCc1nnc(NC(=O)CN2CCN(c3nc(-c4ccccc4)cs3)CC2)s1	i
COc1ccc(C2CC(c3ccc(F)cc3)Nc3nc(N)nn32)cc1 (stereo not drawn)	0.7
Cc1nc(C(F)(F)F)c(C(=O)NC(=O)Nc2ccccc2)s1	i
CCN(c1ccccc1)S(=O)(=O)c1ccc(OC)c(OC)c1	0.3
O=C1C2CC=CCC2C(=O)N1c1ccc(OCC(O)Cn2nnc3ccccc32)cc1 (stereo not drawn)	2.0
O=C(O)CCSc1nc2ccc(Br)cc2[nH]1	i
COc1ccc2[nH]c(=O)c(CN(CCN(C)C)C(=O)NCc3ccccc3)cc2c1	0.1
Cc1nc(/N=C(\N)NC(=O)c2ccccc2)nc2ccccc12	i
Cc1nn(-c2cc(N3CCNCC3)ccc2[N+](=O)[O-])c(=O)c2ccccc12	0.4
COc1ccc(C(=O)c2ccc(Cl)cc2Cl)cc1	i
COc1ccc(/C=C2/SC(=O)N(NS(=O)(=O)c3ccccc3)C2=S)cc1OC	0.5
CCOC(=O)c1cnc(SC2CC(=O)N(c3ccccc3)C2=O)nc1N (stereo not drawn)	i
CCOc1cccc(-c2nnc(SCC(=O)Nc3cc(C)ccc3OC)n2N)c1	i
CCCNc1nc2c(c(=O)n(C)c(=O)n2C)n1CCc1ccccc1	2.4
O=C(CCNS(=O)(=O)c1cccc2nsnc12)NCCC1=CCCCC1	0.6
CC(C(=O)Nc1ncc2c(n1)CC(C)(C)CC2=O)N1C(=O)c2ccccc2C1=O (stereo not drawn)	i
CC(=O)c1cccc(NC(=O)c2nccnc2C(=O)O)c1	i
CCn1c2ccccc2c2cc(NS(=O)(=O)c3ccccc3C)ccc21	1.5
CN1CCC(=NNC(=O)C(=O)NC2CCCCC2)CC1	i
CC(C)CCn1c(NCCN(C)C)nc2c1c(=O)[nH]c(=O)n2C	i
COc1ccccc1CNC(=O)c1cc2sccc2n1C	i
COC(=O)COc1ccc(S(=O)(=O)N2CCOCC2)cc1C	1.4
Cc1ccc(S(=O)(=O)Cn2nnnc2C(CC(C)C)N2CCN(c3ccc(F)cc3)CC2)cc1 (stereo not drawn)	0.1
Cc1ccc2nc(CSc3nnc(Cc4cccs4)n3C3CCCCC3)cc(=O)n2c1	i
O=C(c1ccc(Cl)c(F)c1F)N1CCCC1	i
COc1cc2c(cc1NC(=S)Nc1ccccc1C)oc1ccccc12	i
O=C1CCCc2c1[nH]c1ccc(CN3CCCCC3)cc21	0.5
CCCCc1ccc(NC(=O)c2c(C)noc2C)cc1	i
CCCc1cc(-c2n[nH]c(=S)n2Cc2ccccc2)cs1	i
CCN(CC)Cc1c(O)c(Cl)cc2c(C)c(C)c(=O)oc12	0.9
Cc1nc(SCC(=O)c2cc3ccccc3oc2=O)c(C#N)c(C)c1C(=O)Nc1ccccc1	i
O=C(CC(Cc1ccccc1)C(=O)O)NCCc1ccc2c(c1)OCO2 (stereo not drawn)	0.2
Cc1cc(C)n(-c2ccn(Cc3ccc(Cl)cc3Cl)c(=O)n2)n1	0.0
Cc1ccc(Nc2cc(C)nn2-c2nc(C)cc(C)n2)cc1	i
O=C(Nc1ccc(Cl)cn1)c1ccc(-c2cc(Cl)ccc2Cl)o1	i
Cn1c(SCC(=O)N2CCCCC2)nc2cccnc21	0.9
Cc1ccsc1/C=N/Nc1nc(Cl)c(Cl)cc1Cl	0.1

The list goes on:
compound	H5N1 CPE
Cn1c(=O)c2cn(-c3cccc4ccccc34)cc2n(C)c1=O	0.6
COc1cc(OC)cc(C(=O)NC(C(=O)NCCN(C)C)C23CC4CC(CC(C4)C2)C3)c1 (stereo not drawn)	i
COc1ccccc1N1CCN(C(c2ccccc2Cl)c2nnnn2C(C)(C)C)CC1 (stereo not drawn)	3.2
O=c1[nH]c2ccccc2nc1-c1cccs1	1.6
Cn1nc([N+](=O)[O-])nc1Oc1ccccc1	i
COc1cc(C)c(C)cc1S(=O)(=O)N1CCN(Cc2ccc3c(c2)OCO3)CC1	0.2
CC(C)c1ccc(Nc2nc(NCc3ccco3)nc(N3CCOCC3)n2)cc1	4.6
c1ccc(Cn2nnc3c(N4CCCCCC4)ncnc32)cc1	0.8
Cc1cc(NC(=O)c2cnn3cccnc23)no1	i
COC(=O)c1ccc(-c2cc(C(=O)O)c3cc4c(cc3n2)OCCO4)cc1	i
COc1ccc2nc(NC(=O)CN3CCN(C)CC3)sc2c1	i
CCN(c1ccc2c(c1)OCO2)S(=O)(=O)c1cc(Br)cc2c1N(C(C)=O)CC2	0.7
CCN1CCN(c2c(Cl)cccc2NC(=O)c2ccc(Br)o2)CC1	0.3
CCOCCCn1c(=N)c(C(=O)NCc2ccc3c(c2)OCO3)cc2c(=O)n3cccc(C)c3nc21	i
CC(C)CC(NC(=O)C1CCC(C)CC1)C(=O)N1CCN(c2ccccn2)CC1 (stereo not drawn)	i
CCC(=O)N1CCCc2cc(S(=O)(=O)N3CCN(c4ccccc4F)CC3)ccc21	1.8
Cc1cc(C(=O)NCc2cccs2)no1	i
CC(C)CN1C(=O)NC(NC(=O)c2ccco2)(C(F)(F)F)C1=O (stereo not drawn)	i
C=CCN1C(=O)C(O)(CC(=O)c2c(C)n[nH]c2C)c2cc(Br)ccc21 (stereo not drawn)	1.8
COC(=O)c1ccc2c(c1)S(=O)(=O)NC(=NCc1ccco1)S2	2.1
Cc1nn(C)c(C(=O)N/N=C/c2ccccc2)c1[N+](=O)[O-]	0.5
CNC(=O)NC1CCCc2ccccc21 (stereo not drawn)	0.1
Cn1c(=O)[nH]c(=O)c2c1nc(NCCCn1ccnc1)n2Cc1ccc(F)cc1	1.4
C=C(C)Cn1c(CCCNC(=O)CCC)nc2ccccc21	0.3
Cc1[nH]nc2c1C1(CCOCC1)C(C#N)=C(N)O2	0.3
COC(=O)[C@H](CCSC)NC(=O)NC1CCN(Cc2ccccc2)CC1	i
CN(Cc1ccccc1)S(=O)(=O)c1ccc2c(c1)OCCO2	i
C=CCn1c(=O)n(CCC#N)c(=O)n(CCC#N)c1=O	0.2
O=C(NCC1CCNCC1)c1ccncc1	i
Cn1c(=O)oc2cc(S(=O)(=O)N3CCCc4ccccc43)ccc21	i
COc1ccc(-c2cc(CCCC(=O)NCCc3ccc(OC)cc3OC)no2)cc1	0.4
Cc1ccc(-c2nnc(N(C)C(=O)c3ccccn3)s2)cn1	1.2
COc1cc(C(=O)Nc2ccc(S(=O)(=O)Nc3cc(C)on3)cc2)cc(OC)c1OC	i
CC(C)(/C=N/O)/[N+]([O-])=C/C=[N+](\[O-])C(C)(C)/C=N/O	i
